Source: PubChem (several laboratories)
Mtb bLac sens = beta-lactam sensitization of Mtb H37Rv. M. tuberculosis H37Rv growth with meropenem, percent inhibition; hits of this screen are not shown here. hit rate 0.27% among 330,000. inhibition, % at 25 µM. AID 434955;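 active = about 74% or more and at least 40 points above the plate without the antibiotic, then above 30% in a dose series; inconclusive = first-round hits that could not be retested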;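 note: growth measured after seven days incubation then overnight dye step; 0% = bacteria only wells and 100% = bacteria with antibiotic; twin plates without the antibiotic show which effects depend on it; some results filed as inactive read as strong as hits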
Arbovirus inh = antivirals against arbovirus infection; arbovirus infection cell-based antiviral screen; inhibition, % at 10 µM; hit rate 0.37% among 200,000;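 active = inhibition from about 30%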;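 note: bluetongue infection of BSR cells; cell survival read as ATP light after 72 h; 0% = infected wells without compound and 100% = uninfected wells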
YopH inh = YopH (Yersinia) phosphatase inhibition. AID 898. hit rate 0.16% among 140,000. inhibition, %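 (about 10 µM by stock and volumes)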. fluorescence Ex485/Em525;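 active = inhibition of 50% or more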;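 note: controls were vehicle for no effect and minimum signal wells for full effect; inactives centre near -20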
RecA splice inh = inhibitors of M. tuberculosis RecA intein splicing. P9WHJ3. cell-free RecA intein splicing, fluorescence. inhibition, %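 (about 9 µM by stock and volumes)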. hit rate 0.75% among 290,000; in the data active = inhibition above about 30%; inconclusive = no clear call, values can overlap the other calls;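 note: 0% = vehicle wells and 100% = reference inhibitor control wells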
Target sequence (P9WHJ3 whole entry, looked up, canonical isoform): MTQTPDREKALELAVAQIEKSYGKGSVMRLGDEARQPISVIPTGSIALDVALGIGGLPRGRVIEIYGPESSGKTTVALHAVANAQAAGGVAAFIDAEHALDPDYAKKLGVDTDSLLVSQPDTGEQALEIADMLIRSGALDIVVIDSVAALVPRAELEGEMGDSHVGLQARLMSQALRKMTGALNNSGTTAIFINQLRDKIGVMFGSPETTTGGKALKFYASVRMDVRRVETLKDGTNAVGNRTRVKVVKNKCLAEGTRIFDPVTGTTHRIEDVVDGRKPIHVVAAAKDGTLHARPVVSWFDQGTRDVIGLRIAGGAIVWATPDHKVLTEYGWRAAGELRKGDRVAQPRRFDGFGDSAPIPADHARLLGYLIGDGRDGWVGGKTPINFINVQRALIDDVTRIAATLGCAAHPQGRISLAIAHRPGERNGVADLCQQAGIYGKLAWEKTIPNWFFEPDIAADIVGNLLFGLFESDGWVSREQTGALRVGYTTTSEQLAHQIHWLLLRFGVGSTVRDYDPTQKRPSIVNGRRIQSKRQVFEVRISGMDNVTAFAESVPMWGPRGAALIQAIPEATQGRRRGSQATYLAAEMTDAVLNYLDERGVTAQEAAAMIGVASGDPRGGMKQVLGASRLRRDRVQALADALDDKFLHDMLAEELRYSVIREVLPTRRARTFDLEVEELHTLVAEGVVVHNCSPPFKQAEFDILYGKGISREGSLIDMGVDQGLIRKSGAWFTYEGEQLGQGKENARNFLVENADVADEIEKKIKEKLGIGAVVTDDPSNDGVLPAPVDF
Mtb growth = M. tuberculosis H37Rv growth inhibitors, H37Rv strain (AID 1626); M. tuberculosis H37Rv growth inhibition; higher % means a stronger effect; inhibition, % at 10 µM; hits with a dose series show IC50 in µM; hit rate 0.95% among 220,000;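 active = confirmed in a dose series; inconclusive = inhibition above 80% but not taken into the dose series; inactive = below 80% or under 30% at every dose of the series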;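 note: bacteria incubated seven days before Alamar blue readout; 0% = bacteria only wells and 100% = bacteria with antibiotic wells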
Arbovirus inh repeat = also measured in Arbovirus inh; calls as there; inhibition, %; measured here: 10K subset replicate screen; many hits read low in the repeat;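 first of two repeat runs on a subset; 0% = infected and 100% = uninfected wells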
* hit, by the source's call; ? = inconclusive; · = not tested or not shown. These rows are one share of the data; count on the stated rates, not on these rows.

SMILES	Mtb bLac sens	Arbovirus inh	YopH inh	RecA splice inh	Mtb growth	others
COc1ccc(OC)c(C(=O)c2nc3c(n2O)CCCCC3)c1	-2	14	-25	9.6	-1%
COc1ccc(S(=O)(=O)N2CCN(C(=O)c3ccc([N+](=O)[O-])o3)CC2)cc1	100	·	·	-1.7	·
CCCOc1ccccc1C1CC(=O)NC2=C1C(=O)CCC2 (centres undefined)	-11	-20	-34	-2.6	4%
Cn1c(SCC(=O)Nc2ccc3c(c2)OCCO3)nnc1-c1ccccn1	-2	9	-13	1.7	-8%
COc1ccc(-c2nnc(NC(=O)c3cccs3)s2)c(OC)c1	7	·	·	·	-8%
CCOC(=O)c1c(C)[nH]c(C(=O)/C(C#N)=C/c2ccc(OCC)cc2)c1C	26	0	-30	1.1	-4%
CCCCC(=O)OCC(=O)Nc1cccc(S(=O)(=O)NC2=NCCCCC2)c1	-6	1	·	-1.7	3%
O=C(CCCl)N(Cc1nc2ccccc2c(=O)[nH]1)Cc1cccs1	-2	-3	·	-0.2	-6%
Cc1onc(-c2ccccc2)c1C(=O)N/N=C/c1ccc(Br)cc1	-9	·	·	-0.5	·
Cn1c(=O)oc2cc(C(=O)c3ccccc3)ccc21	-1	-1	36	0.2	-3%
CCC(C)(C)NC(=O)C(c1ccccc1Cl)N(C(=O)CCC(=O)Nc1cc(C)on1)C(C)(C)C (centres undefined)	-2	·	·	-0.4	·
Cc1onc(-c2c(F)cccc2Cl)c1C(=O)N1CCN(c2ncccn2)CC1	-9	9	·	0.9	3%
O=C1CC(=C(c2ccccc2)c2ccccc2)C(=O)N1CCN1CCN(c2cccc(Cl)c2)CC1	-1	-13	-21	15	5%
CC(Oc1ccc(Cl)cc1Cl)C(=O)NCCCCc1ccccc1 (centres undefined)	?	21	-16	4.8	10%
O=c1c2c(n3nnnc3n1-c1ccccc1)-c1ccccc1CC21CCCC1	-11	5	-32	-2.0	-4%
Cc1ccc2c(c1)N(CC(=O)OC(CC(C)C)C(=O)NC1CCCC1)C(=O)CO2 (centres undefined)	-1	-2	-2	3.3	-5%
CN=C1c2cc3c(Br)c(OC)ccc3n2CCN1C	35	-14	-16	2.8	3%
O=C(O)c1cccc(NC(=O)C2CCCO2)c1 (centres undefined)	-4	2	-6	-1.4	-3%
COc1ccc(OC)c(S(=O)(=O)Nc2ccccc2SC)c1	10	-1	-1	3.1	0%
COc1cccc(/C(O)=C2/C(=O)C(=O)N(CCN(C)C)C2c2ccc(Br)cc2)c1 (centres undefined)	-4	6	-4	0.4	-4%

Entries shown so far containing two or more sulfur atoms (2):
SMILES	Mtb bLac sens	Arbovirus inh	YopH inh	RecA splice inh	Mtb growth	others
COc1ccc(-c2nnc(NC(=O)c3cccs3)s2)c(OC)c1	7	·	·	·	-8%
COc1ccc(OC)c(S(=O)(=O)Nc2ccccc2SC)c1	10	-1	-1	3.1	0%

Later entries
SMILES	Mtb bLac sens	Arbovirus inh	YopH inh	RecA splice inh	Mtb growth	others
O=C(CCc1ccncc1)NC1CCCc2c1cnn2-c1ccc(F)cc1F (centres undefined)	0	·	·	-0.5	·
Cc1cc(=O)[nH]c(SCC(=O)N2CCN(C(c3ccccc3)c3ccccc3)CC2)n1	1	4	29	12	-12%
O=S(=O)(NCC(O)COCc1ccco1)c1cccs1 (centres undefined)	-5	8	·	-0.3	-10%	Arbovirus inh repeat=1
CC(C)(C)c1ccc(Cn2nnc3c(=O)[nH]c(C4CCN(C(=O)Cc5cccs5)CC4)nc32)cc1	97	-45	-18	9.4	41%
COc1ccc(C(=O)Nc2ccccc2N2CCN(C(=O)C(C)C)CC2)cc1Cl	55	1	12	2.8	10%
O=C(COc1ccc(Cl)cc1)Nc1cnn(Cc2c(Cl)cccc2Cl)c1	-5	-17	-13	-3.4	0%
Cc1cc(NC(=O)CCC(=O)N(Cc2ccco2)C(C)(C)C(=O)NC2CCCCC2)no1	-10	4	-20	1.2	-6%
COc1ccc(CNC(=O)C(C)OC(=O)CN2C(=O)COc3ccccc32)cc1 (centres undefined)	5	·	·	-0.8	·
CC(=O)O[C@@H]1[C@@]2(C)O[C@H]2CC[C@]23O[C@H]2[C@H](OC3=O)C2=C(C)C(=O)O[C@@]21O	-3	4	-20	8.3	-11%
CCn1c(SCc2nc3ccccc3[nH]2)nnc1-c1cnccn1	8	4	-59	2.0	25%
Cc1ccccc1C(=O)N1c2ccccc2OCC1C(C)(C)C (centres undefined)	-6	·	·	1.2	·
Nc1ccc2c3c(cccc13)CC2	8	-3	-37	-8.3	-2%
Cc1ccc(C(=O)Nc2sc(C)c(C)c2C(=O)c2ccccc2)cc1	90	3	-17	0.1	49%
COc1ccc(COC(=O)c2ccc(Cl)c(S(=O)(=O)N3CC(C)OC(C)C3)c2)cc1 (centres undefined)	-15	·	·	4.1	·
Cc1cccc2nc(COc3ccc4ccccc4c3Br)cn12	·	·	·	-14	-1%
CC1(C)C(=O)OC(c2cccn2-c2ccc([N+](=O)[O-])cc2)C(C)(C)C1=O (centres undefined)	2	0	-26	-1.3	5%
CC(C)C[C@H](NC(=O)N1CCn2c1nc1ccccc12)C(=O)NCCc1ccccc1	4	·	·	-5.1	·
CC(=O)c1ccc(-n2c(=O)[nH]c(=O)c3c(N)c(C(=O)c4ccc(Cl)cc4)sc32)cc1	0	·	·	1.8	2%
O=C(/C=C/c1ccccc1)NCc1ccco1	-7	-9	·	-4.5	-3%
CCOc1ccc(NS(=O)(=O)c2ccc(NC(C)=O)c(OC)c2)cc1	6	6	-21	-0.1	-1%
CC(C)(C)c1ccc(OCCCn2ccnc2)cc1	73	·	·	-2.2	·
O=c1cc(CCl)nc2sc3ccccc3n12	95	4	·	4.2	2%
Cc1ccc(CNC(=O)c2ccc3c(=O)n(CC4CCCO4)c(=S)[nH]c3c2)cc1 (centres undefined)	36	4	-13	3.8	0%
CCOc1ccc2c(c1)C(=O)c1cc(OCC(=O)O)ccc1-2	52	·	·	-3.1	8%
CCOC(=O)c1cnn(-c2ccccc2)c1-n1cccc1C(=O)C(=O)N(C)C	-1	2	·	-2.5	8%
N#CC1=C(N)OC2=C(C(=O)CC(c3ccco3)C2)C1c1ccc(OCc2c(F)cccc2Cl)cc1 (centres undefined)	-7	-5	-7	6.7	1%
CN1CCN(c2nc(Nc3ccc(F)cc3)nc(Nc3ccc(F)cc3)n2)CC1	99	·	·	1.3	·
CC1CCCCC1NC(=O)CCS(=O)(=O)c1cccc2nonc12 (centres undefined)	0	8	4	0.7	-3%	Arbovirus inh repeat=5
Cc1ccc(Cn2c(CN3CC(C)OC(C)C3)nc3c2c(=O)n(C)c(=O)n3C)cc1 (centres undefined)	-3	0	-45	-0.6	4%	Arbovirus inh repeat=8
C1CCN(c2nc3nonc3nc2N2CCCC2)C1	3	5	-26	0.3	-15%
COc1ccc(OC)c(S(=O)(=O)N2CCC(C(=O)NCc3ccccc3)CC2)c1	-6	-3	-43	-0.9	-12%
CN(C(=O)c1cccc(Br)c1)C1CCS(=O)(=O)C1 (centres undefined)	3	·	·	1.0	·
COc1ccc(-c2cn(Cc3cccc(OC)c3)nn2)cc1	1	·	·	3.5	·
CC(C)(CN=C1NS(=O)(=O)c2ccccc21)CNC(=O)c1ccccc1	-13	·	·	-1.1	·
CC(C)(C)C1CCc2sc(C(=O)NNC(=O)CCl)cc2C1 (centres undefined)	·	-33	·	67*	58%
COC(=O)C1CCN(C(=O)c2cc3c(=O)n4cccc(C)c4nc3n2Cc2ccccc2)CC1	0	·	·	-5.0	-7%
CCc1cccc(C)c1NC(=S)N(CCCN1CCN(C)CC1)Cc1cccs1	-8	0	·	-2.0	2%
CCOc1ccc(NCc2cccn2-c2nnc(N3CCC(C(=O)NCCCN4CCCCC4)CC3)s2)cc1	90	·	·	-2.2	·
CC[C@H](C)[C@@H]1NC(=O)c2cc([N+](=O)[O-])cc(I)c2NCC[C@@H](C(N)=O)NC(=O)[C@H](CCCN=C(N)N)NC1=O	1	-3	-30	·	-10%
CCCS(=O)(=O)N1CCN(C(=O)CCC2CCCC2)CC1	4	2	-2	0.0	-15%
Cn1c(Sc2ccc(Cl)cc2)c(C=O)c2ccccc21	0	-26	-45	19	10%
Cc1cc(C)c2c(=O)[nH]n(C(C)C)c2n1	5	-2	-33	-5.5	5%
CCC(C)NC(=O)CS(=O)Cc1nc(-c2ccccc2C)oc1C (centres undefined)	4	2	-25	1.6	·	Arbovirus inh repeat=-1
COc1ccc(N2C(=O)C(F)(F)C2c2cccc(F)c2)cc1 (centres undefined)	99	-1	·	4.5	?
Cc1cc(C(=O)N/N=C/c2ccc(-c3cccc([N+](=O)[O-])c3)o2)n[nH]1	3	·	·	-1.9	·
COc1ccc2oc3cc(C)[n+]([O-])c(-c4ccc(C)cc4)c3c2c1	6	46*	-2	-1.9	4%
Cc1ccccc1OCc1nnc(SCC(=O)Nc2ccc3nc(SCC(=O)Nc4ccccc4)sc3c2)n1C	81	-14	-17	0.6	1%
O=C(CSC1c2ccccc2C(=O)N1c1ccccc1)N1CCOCC1 (centres undefined)	-19	-4	-29	1.3	-8%
N#CC(C#N)=NNc1ccc([N+](=O)[O-])cc1	-5	·	·	26	-4%
CCc1ccc(OCCCCCn2ccnc2)cc1	4	·	·	1.2	·
CN(CCC1CCCCO1)C(=O)CCc1nnc(CCc2ccccc2)o1 (centres undefined)	-9	·	·	-5.0	·
O=C(O)c1ccccc1-c1ccccc1C(=O)Nc1cccc(-c2nc3ccccc3o2)c1	19	0	·	8.1	2%
COCCCNc1nc2c(c(=O)[nH]c(=O)n2C)n1CCCc1ccccc1	5	1	-20	-2.8	-12%
COC(=O)CSc1c(-c2ccccc2)c2cc(Cl)ccc2[nH]c1=O	-2	0	-14	13	-4%
CCOC(=O)CSc1nc(C)nc2c1sc1nc(C)c(C(C)=O)c(-c3ccc(OC)cc3)c12	5	8	-16	5.2	2%
Cc1ccccc1NC(=O)c1ccc2nccnc2c1	3	·	·	-2.6	·
CCn1cc(C(=O)OCC(=O)Nc2cccc(C)c2)c(=O)c2ccc(C)nc21	-7	·	·	0.9	·
CCCCN(C)C(=O)CCC(=O)Nc1ccc2nc(N3CCOCC3)cc(C)c2c1	8	-1	-26	-1.9	-3%
CC(C)[C@H](NC(=O)NCc1cccs1)C(=O)O	-1	-2	-22	-2.1	5%
O=C(COc1ccccc1O)c1cccs1	-17	8	-32	0.5	1%

Taken from above (2 entries):
SMILES	Mtb bLac sens	Arbovirus inh	YopH inh	RecA splice inh	Mtb growth	others
COc1ccc(OC)c(C(=O)c2nc3c(n2O)CCCCC3)c1	-2	14	-25	9.6	-1%
COc1ccc(S(=O)(=O)N2CCN(C(=O)c3ccc([N+](=O)[O-])o3)CC2)cc1	100	·	·	-1.7	·

Filtered by structure: those above with fluorine (five)
SMILES	Mtb bLac sens	Arbovirus inh	YopH inh	RecA splice inh	Mtb growth	others
Cc1onc(-c2c(F)cccc2Cl)c1C(=O)N1CCN(c2ncccn2)CC1	-9	9	·	0.9	3%
O=C(CCc1ccncc1)NC1CCCc2c1cnn2-c1ccc(F)cc1F (centres undefined)	0	·	·	-0.5	·
N#CC1=C(N)OC2=C(C(=O)CC(c3ccco3)C2)C1c1ccc(OCc2c(F)cccc2Cl)cc1 (centres undefined)	-7	-5	-7	6.7	1%
CN1CCN(c2nc(Nc3ccc(F)cc3)nc(Nc3ccc(F)cc3)n2)CC1	99	·	·	1.3	·
COc1ccc(N2C(=O)C(F)(F)C2c2cccc(F)c2)cc1 (centres undefined)	99	-1	·	4.5	?

Continuation.
SMILES	Mtb bLac sens	Arbovirus inh	YopH inh	RecA splice inh	Mtb growth	others
O=C(NC1CCCCCCC1)C1=COCCO1	3	-3	-21	0.4	-11%
O=C(c1ccccc1O)N1N=C(c2ccccc2)CC1(O)C(F)(F)F (centres undefined)	8	-10	·	4.7	21%
CCOc1ccc(CCNC(=O)c2ccc3c(=O)[nH]c4c(C(=O)NC(C)C)sc(=S)n4c3c2)cc1	97	·	·	-1.6	·
COc1ccccc1CNc1ncnc2cc(Cl)ccc12	·	3	·	1.2	-2%
CN(C)CCCN(C(=O)COc1ccccc1)c1nc2ccc(F)cc2s1	-6	10	·	-0.6	3%
NNC(=O)C1CC1c1ccccc1 (centres undefined)	-3	-2	-25	3.2	-11%
Fc1ccc(-c2nnn(Cc3ccccc3Cl)n2)cc1	5	·	·	2.5	·
Cc1ccc(C(=O)O)cc1-c1ccc(C=C2C(=O)c3ccccc3C2=O)o1	-11	-1	·	4.6	2%
CCOC(=O)c1sc(NC(=O)C(CC)Sc2nc3ccccc3[nH]2)nc1C (centres undefined)	5	·	-24	-1.6	-11%
Cc1cc2c(ncn2C)c(NS(=O)(=O)c2ccc(Cl)cc2)c1C	2	2	·	-1.3	·
Cc1ccccc1NS(=O)(=O)c1ccc(C(=O)N2CCN(c3ccccn3)CC2)cc1	-5	7	·	·	6%
